CSC inhib = cancer stem cell viability inhibitors, primary screen, luminescence; cancer stem cell-like cells viability; inhibition, % at 7.5 µM; 1.1% of 300,000 active;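 active means mean at 75% or more and at least half the replicates too; tested in HMLE shEcad cells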;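 further: 0% = median of negative and 100% = median of positive control wells; the first replicate is given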
UUG fidelity = modulators of yeast start codon fidelity, primary screen, whole organism, S. cerevisiae, single point, plate reader; activity score, % at 18.7 µM; S. cerevisiae UUG-firefly luciferase reporter, luminescence/redox ratio; AID 602363, 2012; 0.13% of 350,000 active;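 active means replicate mean at a twofold rise or more, about +100% in these data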;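 further: firefly luciferase made from a UUG start codon reports start codon fidelity; reporter light over untreated wells divided by growth signal over untreated wells; some hits fall short of that in this replicate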
Rce1 inhib = yeast Rce1p protease inhibitors, primary screen, biochemical, fluorescence, cell-free homogeneous. CAAX prenyl protease 2 (Saccharomyces cerevisiae (strain ATCC 204508 / S288c)), Q03530. AID 2563, 2010. calls only. yeast membranes, quenched prenylated peptide cleavage fluorescence. 0.27% of 290,000 active;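 active means fall in fluorescence gain of 50% or more versus controls, with final raw signal at or below 3038400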;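 further: plate controls were neutral control wells for no effect and wells lacking membranes for full effect; tested at 10 µM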
Target sequence (Q03530 whole entry, looked up): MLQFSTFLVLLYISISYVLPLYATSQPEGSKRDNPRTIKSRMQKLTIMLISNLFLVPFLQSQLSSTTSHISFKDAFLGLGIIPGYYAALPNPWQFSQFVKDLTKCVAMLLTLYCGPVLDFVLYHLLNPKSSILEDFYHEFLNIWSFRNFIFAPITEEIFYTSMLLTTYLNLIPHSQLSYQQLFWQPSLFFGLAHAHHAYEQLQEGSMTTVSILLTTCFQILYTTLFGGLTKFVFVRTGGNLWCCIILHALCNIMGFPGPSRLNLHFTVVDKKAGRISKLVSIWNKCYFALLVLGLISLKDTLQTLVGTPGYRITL
Env fusion inh = inhibitors of HIV-1 Env-driven cell-cell fusion, primary screen, HeLa-JRFL effector, CEM21 target cells, luciferase; inhibition, % at 12.3 µM; 1.1% of 360,000 active; AID 651610, 2012;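 active means mean replicate inhibition score of at least 50 and every replicate individually at or above 50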;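 further: 0% = plate neutral controls and 100% = maraviroc near 300 nM; one replicate is shown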
PABP polyA inh = PABP poly(A) RNA binding inhibitors, primary screen, biochemical, fluorescence polarization, uHTS | Polyadenylate-binding protein 1 (Homo sapiens), P11940 | inhibition, % at 35 µM | 1% of 290,000 active;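 active means 50% or more with normal probe brightness, or confirmed in later tests; about a fifth of its hits are not listed in these tables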;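 further: calls also rest on retests at 20 µM and on dose response follow-up; controls were probe without protein and protein plus probe with vehicle; some compounds called inactive have numbers as strong as hits; many hits fall short of the cut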
eIF4H inh = human eIF4H binding inhibitors, primary screen, translation initiation inhibitor project, biochemical, uHTS, fluorescence polarization; AID 2012, 2009; Eukaryotic translation initiation factor 4H (Homo sapiens), Q15056; eIF4H fluorescence polarization binding assay; 0.94% of 290,000 active; inhibition, % at 35 µM;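 active means 50% or more with normal probe brightness, or confirmed in later tests; about a fifth of its hits are not listed in these tables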;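 further: calls also rest on retests at 20 µM and on dose response follow-up; 0% = protein and probe with vehicle and 100% = probe without protein; strong numbers were not always called active; many hits fall short of the cut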
MT1-MMP act inh = blockers of MT1-MMP proenzyme processing, primary screen, HT1080 RFP-PRO-GFP cells, GFP/RFP fluorescence; Matrix metalloproteinase-14 (Homo sapiens), P50281; GFP/RFP ratio fluorescence, overnight; percent of plate control window, DMSO zero; GFP/RFP ratio change, % at 20 µM; 0.061% of 360,000 active; AID 651647, 2012;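 active means GFP/RFP ratio change of at least 30% with cell ATP level not reduced by more than half and red fluorescence within 50% of control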; further: strong numbers were not always called active
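system = RFP-PRO-GFP reporter HT1080 cells | dosing = 20 µM single dose, 1% DMSO | timing = overnight cell settling, then overnight compound exposure, 37 °C, 5% CO2 | read-out basis = GFP/RFP fluorescence ratio | controls = DMSO and RFP-L50D-GFP cell wells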
eIF4H inh retest = further read-out of eIF4H inh, marked with its call; inhibition, %; compound at 20 µM; confirmation average;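 mean of two retest wells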
PABP polyA inh retest = also measured in PABP polyA inh; calls as there; inhibition, %; compound at 20 µM; confirmation repeats;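 mean of two retest wells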
MT1-MMP act inh RFP = also measured in MT1-MMP act inh; calls as there; RFP signal change, %; measured here: RFP expression control read;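 0 = vehicle wells; hits needed this value within 50% of zero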
Starred values were filed as active, the others as inactive; i = inactive; nt = no result given; & = joins results of further samples.

SMILES	CSC inhib	UUG fidelity	Rce1 inhib	Env fusion inh	PABP polyA inh	eIF4H inh	MT1-MMP act inh	MT1-MMP act inh RFP	others
N#C/C(=C\c1cccc(O)c1)C(=O)N1CCCCC1	-15	-3	i	4	5	19	-3	-5
CC1CCCC(C)N1C(=O)COC(=O)c1ccc(S(=O)(=O)N(C)c2ccccc2)cc1 (stereo not drawn)	-8	-25	nt	-9	nt	nt	3	3
O=C(CCNC(=O)c1ccc(Br)cc1)OCc1ccccc1Cl	9	-14	i	0	nt	nt	0	-3
CC(=O)Nc1cccc(NC(=O)c2cccc3cccnc23)c1	10	-18	i	-44	5	-2	0	2
CCCn1ncc(CN2CCC(n3nccc3NC(=O)CCc3ccccc3)CC2)c1C	1	6	i	8	-1	-20	-1	4
COc1ccccc1-c1noc2ncnc(Nc3cccc(C)c3)c12	14	-9	i	10	-7	-12	-2	0
COc1ccc(C2C(C(=O)c3ccco3)=C(O)C(=O)N2Cc2cccnc2)cc1OC (stereo not drawn)	nt	-12	i	-8	-7	-9	1	2
CN(C)CCNC(=O)c1ccc(-c2cn3c(-c4ccc(Oc5ccccc5)cc4)cnc3cn2)cc1	nt	-20	nt	-25	nt	nt	2	-5
O=C(Nc1ccc(S(=O)(=O)N2CCOCC2)cc1)c1ccc2ncsc2c1	-9	nt	i	-44	4	-1	3	2
Cc1cc(C)c2c(=O)[nH]c(SCC(=O)c3ccc(F)c(C)c3)nc2n1	-3	nt	i	-331	-6	21	0	1
COc1ccccc1-c1nnc(SC(C)C(=O)O)n1-c1ccccc1 (stereo not drawn)	-9	nt	i	0	-4	6	-2	9
CCC(C)Sc1nc(C)nc2c1c(=O)n(C)c(=O)n2C (stereo not drawn)	-5	10	i	-12	2	-7	-1	-4
COc1cc(OC)cc(C(=O)Nc2cccc3ccccc23)c1	3	5	i	9	-6	0	-1	-1
COc1cc(C(=O)OCC(=O)Nc2ccccc2C(=O)NC2CC2)c([N+](=O)[O-])cc1OC	nt	-11	nt	3	nt	nt	6	1
COc1ccccc1NC(=O)CN(C)S(=O)(=O)c1cc(C)ccc1OC	nt	-1	i	-6	-1	-7	9	4
Cc1cccc(NC(=O)c2ccc(S(=O)(=O)N(C)c3ccccc3)cc2)n1	-22	-15	nt	24	nt	nt	2	-19
COc1ccc(NC(=O)NCCCN2CCCC2=O)cc1	-19	-17	i	8	-17	-4	3	7
CCOC(=O)c1sc(SC)c2c1CCCC2=O	0	-6	i	-54	-2	-9	0	5
Cn1cc(C(=O)N2CCN(C(=O)c3ccco3)CC2)c2c3ccccc3n(C)c2c1=O	4	1	i	-8	16	2	2	0
CCOC(=O)C1=C(COC(=O)/C=C/c2cccc(Cl)c2)NC(=O)NC1C (stereo not drawn)	1	8	i	9	nt	nt	7	4
COc1cccc2sc(NNC(=O)COc3ccccc3)nc12	nt	-20	nt	-1	-7	19	3	5
Cc1ccc(CNCc2ccco2)cc1	7	-22	i	4	-1	9	0	2
CN(/N=C/c1cc([N+](=O)[O-])ccc1O)c1ccccc1	12	nt	i	25	0	5	0	2
CCOC(=O)c1c(C2CCN(C(=O)OCC)CC2)nc2ccccn12	-7	-22	i	17	-7	3	1	-1
Cc1cc(C)n(C(=O)c2ccc(C)c(F)c2F)n1	nt	-14	i	8	4	2	-7	-1
O=C(NC1CCCCCCC1)C1CCN(c2nc3ccccc3o2)CC1	nt	-16	i	75*	27	-1	1	-21
Cc1ccc(C)c(/C=N/Nc2ccccn2)c1	9	-7	i	-11	-2	-18	-1	4
O=C(Nc1ccccc1N1CCCCC1)C1CCN(C(=O)c2ccc(Cl)cc2)CC1	-3	6	i	-1	nt	nt	-3	-12
CCc1nc(OCc2ccco2)c2sc3nc4c(cc3c2n1)COC(C)(C)C4	13	-10	i	nt	11	-4	-9	-10
CC(C)n1c(SC2CCOC2=O)nc2ccccc21 (stereo not drawn)	-4	-15	i	-75	-8	2	-3	-2
CNC(=S)N/N=C/c1ccco1	-8	-25	i	2	14	-12	6	5
COc1ccc2oc(=O)cc(CN3CCN(Cc4ccccc4)CC3)c2c1	nt	-2	nt	32	nt	nt	1	-1
Cc1cc(C(=O)NN=Cc2ccc(-c3ccc(F)cc3)o2)c(C)o1	-5	-19	nt	nt	nt	nt	4	0
Cc1cc(S(=O)(=O)NCCc2ccccc2)ccc1-n1cnnn1	nt	-9	i	5	4	1	4	-1
OC[C@@H]1[C@@H](c2ccc(Cl)cc2)C(c2ccc(F)cc2)=NN1c1ccccc1	nt	-2	nt	9	nt	nt	1	-6
O=C(NNC(=O)c1cccs1)c1ccncc1	-1	nt	i	1	44	-7	-2	-1
O=C(C[C@H]1CC[C@H]2[C@@H](COC[C@@H](O)CN2S(=O)(=O)c2ccc(F)cc2)O1)N[C@@H]1CCN(Cc2ccccc2)C1	nt	10	nt	3	nt	nt	1	1
Cc1cccn2c(=O)c(/C=C(\C#N)S(=O)(=O)c3ccccc3)c(N3CCN(C)CC3)nc12	-16	9	i	nt	14	7	-2	0
COC(=O)CSc1nnc(-c2ccc(S(=O)(=O)NCc3cccs3)cc2)o1	-17	-9	i	-8	12	-1	1	1
CCSC1=NCCN1S(=O)(=O)c1ccc(NC(C)=O)cc1	0	nt	i	27	0	-12	0	4
Cc1ccc(Cn2c(-c3nonc3N)nc3ccccc32)cc1	-7	-19	i	nt	-7	-13	2	-4
Cc1ccc(S(=O)(=O)N2CCCSCC2)cc1	-9	-17	i	nt	-10	-1	-2	3
CC(OCC(O)CN(C)Cc1nc2ccccc2c(=O)[nH]1)c1ccc(Cl)cc1 (stereo not drawn)	-7	nt	i	14	-3	-4	3	-4
CCOC(=O)C1=C(c2ccccc2)NC(SCC(N)=O)=C(C#N)C1c1cccnc1 (stereo not drawn)	-16	-16	i	-45	4	4	-2	1
Nc1ccc(C(=O)Nc2ccc3nc(-c4cccnc4)[nH]c3c2)cc1	-6	-23	i	nt	4	-3	12	2
Cn1c(=O)c2cc(S(=O)(=O)NCCC(=O)Nc3ccc(Cl)cc3)ccc2n(C)c1=O	-1	16	i	20	-4	-3	15	5
O=C(CN1C(=O)NC2(CCCC2)C1=O)NCCc1ccc(F)cc1	-15	-11	nt	13	nt	nt	1	6
O=C1c2cccc3cccc(c23)C(=O)N1CCCc1n[nH]c(=S)n1-c1ccccc1	-12	nt	i	-13	5	1	-1	0
CCn1c(SCC(=O)Nc2cc(C)on2)nnc1-c1ccncc1	1	-5	i	nt	4	-5	9	3
O=C(CN(C(=O)CCC(=O)Nc1ccccn1)c1ccc2c(c1)OCO2)NCc1ccco1	-3	6	i	nt	2	5	0	1
COC(=O)c1ccc(N2C(=O)C3CC(C)=C(C)CC3C2=O)cc1 (stereo not drawn)	1	nt	i	-1	34	7	5	6
COc1ccc(C)cc1NC(=O)C1CCCCC1C(=O)O (stereo not drawn)	nt	-11	i	-43	-9	0	1	4
CC(C)(C)c1ccc(C(=O)Nn2c(CCC(=O)O)ccc2-c2cccs2)cc1	4	-13	i	nt	12	-4	-4	1
COc1ccc(C2CC(c3ccc4ccccc4c3)=NN2C(=O)CN2CCC(C(N)=O)CC2)cc1 (stereo not drawn)	-2	7	i	-18	2	-11	0	-4
CN(C)CCCn1c2c(c(SCC(=O)Nc3nccs3)nc1=O)CCC2	-12	nt	i	-1	nt	nt	-2	2
CC(C)[C@H](NC(=O)c1ccccc1)C(=O)OCC(=O)N1CCN(C(=O)c2ccco2)CC1	-16	nt	i	-1	6	8	1	4
N/C(=N\OC(=O)c1cccc(Cn2cc(C(F)(F)F)ccc2=O)c1)c1ccc(Cl)cc1	4	-8	i	20	-2	-5	-4	-12
CCOc1ccc(NC2=CC(=O)CCC2)cc1	nt	-9	i	6	3	1	-4	-4
CCN(CC)S(=O)(=O)c1cccc(NC(=O)c2cncc(Br)c2)c1	-2	nt	i	6	-5	7	-1	-4
COc1cccc(NC(=O)C2CCN(S(=O)(=O)c3ccccc3)CC2)c1	-2	2	i	-11	-4	-5	-3	0
(further entries)
SMILES	CSC inhib	UUG fidelity	Rce1 inhib	Env fusion inh	PABP polyA inh	eIF4H inh	MT1-MMP act inh	MT1-MMP act inh RFP	others
CC12CCC(C(=O)N3CCC(Cc4ccccc4)CC3)(C(=O)C1=O)C2(C)C (stereo not drawn)	4	nt	nt	18	-2	-6	0	0
COc1cccc(S(=O)(=O)N(C)C[C@@H]2OCc3cnnn3CCCC(=O)N([C@@H](C)CO)C[C@@H]2C)c1	nt	-23&9	nt	7	nt	nt	2	1
O=C(NCC1CCCO1)c1cncc(Br)c1 (stereo not drawn)	1	nt	i	-15	-14	-2	-2	3
O=C(NCCN1CCOCC1)/C(=C/c1ccc(Cl)cc1)NC(=O)c1ccccc1	-7	-28	i	-41	6	-2	-1	1
CCC(Sc1nc(N)c(NC(=O)c2ccc(Br)o2)c(=O)[nH]1)C(=O)O (stereo not drawn)	2	-14	i	nt	1	-13	1	7
CN(CCO)c1cc(N2CCC3(CC2)OCCO3)c2nonc2c1[N+](=O)[O-]	-3	nt	i	3	-8	-4	6	2
CCOc1ccc(NC(=O)C2CCCN2C(=O)Oc2ccccc2)cc1 (stereo not drawn)	-14	14	i	5	nt	nt	-2	-3
O=C(NCc1ccccc1)C1(c2ccccc2)CCN(S(=O)(=O)c2ccccc2)CC1	-1	8	i	nt	2	-4	-9	-3
CC1(c2ccc(OCC(N)=O)cc2)NC(=O)NC1=O (stereo not drawn)	6	-11	i	-5	2	-1	0	3
COc1cc(/C=C(/C#N)C(=O)Nc2ccccc2)c(Br)cc1OCc1ccc(C(=O)O)cc1	9	13	i	9	39	9	1	1
CC(C)Oc1ccc(C2CC(=O)N(c3ccc(C(=O)O)cc3)C2=O)cc1 (stereo not drawn)	-10	1	i	8	0	5	-1	-1
Cc1nc(C/C(=N\N)c2ccc(O)cc2O)cs1	-5	-18	i	24	-8	-10	-8	-4
Cc1nc2ccccc2nc(=O)c1NNc1ccc([N+](=O)[O-])cc1	7	nt	i	20	71	80	4	-5	eIF4H inh retest=-5;PABP polyA inh retest=6
Cc1cc(Nc2ccc(Br)cc2)nc2ccccc12	72	nt	i	-2	nt	nt	1	3
NC(=O)CN1CCN(S(=O)(=O)c2ccc(Br)cc2)CC1	10	-12	i	-6	-11	-4	1	2
COc1ccc(OCC(=O)Nc2ccccc2C(=O)NC(C)C)cc1	-1	nt	i	4	-4	5	6	5
N#Cc1c(-c2ccccc2)cc(-c2ccc(O)cc2)nc1N	nt	-17	i	19	14	-16	5	-9
COc1cccc2sc3ccc(C#CC4(N)CCCCC4)cc3c(=O)c12	47	-10	i	-290	-23	-7	1	0

Source: PubChem BioAssay (several laboratories)

An excerpt, so the mix of outcomes need not match the whole.
